# Screening results: PubChem, ICCB-Longwood Screening Facility, Harvard Medical School
# HCMV UL50-53 inh: inhibitors of HCMV UL50-UL53 interaction, biochemical, HTRF; AID 1918969, 2023; inhibition, % (no concentration beside the values); HCMV UL50-UL53 nuclear egress complex (human cytomegalovirus); hit rate 0.15% among 190,000; normalized percent inhibition;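 active means both replicates at 50% or more, plus weaker picks with an unusually low signal ratio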;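 further: stock transfer was 100 nL into about 20 µL; 0% = negative control wells and 100% = wells with untagged competitor protein; inactives centre near -12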
# Sa growth inh: S. aureus growth inhibition at 42 and 30 °C, primary screen, LtaS inhibitor project, RN4220, two temperatures. hit rate 0.53% among 170,000. relative growth, % (test concentration not listed). AID 720641, 2013. OD600, 20 h, 42 °C; stronger effect = lower value;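 active means growth at 42 °C up to 50% and 20 or more points under that at 30 °C, or under 10% at both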;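 further: 300 nL library stock went into each well; scaled to the means of positive and negative controls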
# GIV Gai3 FP: inhibitors of GIV peptide binding to Galpha-i3, primary screen, biochemical, fluorescence polarization, FITC-GIV GBA peptide, rat Galphai3 | Guanine nucleotide-binding protein G(i) subunit alpha-3 (Rattus norvegicus), P08753 | 90 min; stronger effect = lower value; scaled: aluminum fluoride 0%, vehicle 100% | percent of control (FP), % (test concentration not listed) | hit rate 0.42% among 210,000 | AID 1224905, 2016;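 active means replicate mean at 85% of control or lower, very high polarization wells dropped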;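 further: wells of about 15 µL received 100 nL stock; the first replicate is given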
# Target sequence (P08753 whole entry, looked up): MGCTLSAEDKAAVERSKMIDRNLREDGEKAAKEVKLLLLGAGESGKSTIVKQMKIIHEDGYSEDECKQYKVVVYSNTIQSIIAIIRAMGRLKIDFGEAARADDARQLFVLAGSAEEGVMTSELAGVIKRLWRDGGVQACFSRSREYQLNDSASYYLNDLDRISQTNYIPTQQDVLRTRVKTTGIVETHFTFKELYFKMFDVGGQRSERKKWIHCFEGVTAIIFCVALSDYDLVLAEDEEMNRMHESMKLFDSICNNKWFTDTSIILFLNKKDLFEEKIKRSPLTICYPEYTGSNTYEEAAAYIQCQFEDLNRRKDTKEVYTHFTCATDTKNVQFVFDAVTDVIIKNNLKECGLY
# Sa growth inh second temp: recorded beside Sa growth inh, whose call it bears; relative growth, %; measured here: growth at 30 °C;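 optical density after 20 h as mean of two plates; 100% = untreated growth and lower means inhibition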
# * hit, by the source's call; . = not tested or not shown.
# Codes: A = HCMV UL50-53 inh; B = Sa growth inh; C = Sa growth inh second temp; D = GIV Gai3 FP
COC(=O)c1ccc(-n2c(C)cc(/C=C3/C(=O)NC(=O)N(c4ccc5c(c4)OCO5)C3=O)c2C)cc1
  A = -6	B = .	C = .	D = 115
Cc1cccc(-c2nnc(-c3nc(NCc4ccc(OC(C)C)cc4)c4ccccc4n3)o2)c1
  A = -18	B = .	C = .	D = 92
O=C(Nc1ccccc1)c1ccc2c(c1)C(=O)N(CC1CCCO1)C2=O (stereo not given)
  A = -98	B = 99	C = 103	D = 111
O=C(Nc1cccc(NC(=O)c2ccc(Br)o2)c1)c1ccccc1
  A = -22	B = 105	C = 86	D = 112
COc1nc(C)ccc1-c1noc(-c2cccc(C)c2)n1
  A = -13	B = .	C = .	D = 99
CC(C)(C)c1ccc(Oc2ccc(NC(=O)CCCC(=O)O)cn2)cc1
  A = -9	B = 105	C = 90	D = 98
Cc1ccccc1NC(=O)Cn1nc2c3cc(-c4ccccc4)nn3ccn2c1=O
  A = -19	B = .	C = .	D = 107
O=C(O)CCSc1nnc(-c2ccc(Cl)cc2Cl)o1
  A = -24	B = 103	C = 88	D = 106
O=S(=O)(NC1=NCC2CCCC2N1)c1ccccc1 (stereo not given)
  A = -16	B = 97	C = 92	D = 101
CCOC(=O)c1cc(C)[nH]n1
  A = -19	B = 94	C = 87	D = 107
Cc1ccc(NC(=O)CN(C)Cc2nnc(-c3cc4c(s3)CCCC4)o2)cc1
  A = -33	B = 74	C = 68	D = .
Cc1nc2cc(S(=O)(=O)N3CCC(C(=O)O)CC3)ccc2n1C1CCCC1
  A = 4	B = 105	C = 90	D = 96
Cc1ccc2oc(C(=O)Nc3onc4c3CC(C)CC4)c(C)c2c1 (stereo not given)
  A = -18	B = .	C = .	D = 98
Cc1cc(C)n2nc(NCc3ccccc3Cl)nc2n1
  A = -6	B = 102	C = 89	D = 106
CCOC(=O)c1cccc(NS(=O)(=O)c2cn(C)c(C)n2)c1
  A = .	B = 95	C = 87	D = 99
CC(=O)Oc1ccc(C(=O)c2ccccc2)c(OC(C)=O)c1
  A = .	B = 71	C = 71	D = 94
Cc1cc(C)nc(SCCn2c(N3CCCCC3)nc3c2c(=O)[nH]c(=O)n3C)n1
  A = -15	B = .	C = .	D = 105
CCc1noc(C)c1C(=O)NCCN(C)C
  A = 0	B = 90	C = 100	D = 103
Cc1cc2nc(CSc3ccccc3NC(=O)CC(C)C)cc(=O)n2o1
  A = -7	B = 106	C = 97	D = 107
O=C(Oc1ccc(Oc2ccccc2)cc1)c1cccs1
  A = -119	B = 111	C = 96	D = 100
CCCC/C(C)=N/N1C(C)CCCC1C (stereo not given)
  A = -3	B = 99	C = 86	D = .
CCN(CC)CCCNC(=O)c1ccc(Cn2c(=O)[nH]c3cc(OC)c(OC)cc3c2=O)cc1
  A = 10	B = 99	C = 92	D = 102
Cc1ccc(-n2nc(CO)c(C(=O)NCc3cccs3)n2)cc1
  A = -28	B = 93	C = 90	D = 99
Cc1cccc2c1-c1sc(C(=O)Nc3ccc(S(N)(=O)=O)cc3)cc1CO2
  A = .	B = 107	C = 89	D = 101
O=C(c1cc2ccccc2[nH]1)N1CCN(c2ccc(-c3noc(C4CCC4)n3)cc2)CC1
  A = -23	B = .	C = .	D = 100
c1ccc2c(c1)OCC(CSc1nc3ccccc3s1)O2 (stereo not given)
  A = 0	B = 92	C = 95	D = .
COc1ccc(/C=C2\SC(=S)N(CCC(=O)N(C)C3CCS(=O)(=O)C3)C2=O)cc1 (stereo not given)
  A = -34	B = 79	C = 86	D = 103
COc1ccc2nc(C)cc(-n3nc(C)cc3C)c2c1
  A = -1	B = 110	C = 101	D = .
COC(=O)c1ccc(C2CC(=O)Nc3c2c(C)nn3-c2nc(C)cc(C)n2)cc1 (stereo not given)
  A = -25	B = 93	C = 80	D = 96
CSC1=NC2(CCN(C(=O)OC(C)(C)C)CC2)N=C1c1ccccc1
  A = -32	B = 96	C = 87	D = 98
O=C(C1CCCN(S(=O)(=O)c2ccc3nc(-c4ccccc4)[nH]c3c2)C1)N1CCOCC1 (stereo not given)
  A = 20	B = 101	C = 105	D = 107
Cc1ccc(C)c(Cn2c3ccccc3c3cnn(CC(=O)NCCN4CCN(C)CC4)c(=O)c32)c1
  A = -6	B = 104	C = 73	D = 100
O=C(CSc1nc2ccc(NC(=O)c3ccccc3C(=O)N3CCCC3)cc2s1)NC1CCCCC1
  A = -16	B = .	C = .	D = 106
CCCCN(CC)S(=O)(=O)c1ccc(C(=O)Nc2nnc(COC)o2)cc1
  A = -26	B = -0.5*	C = -0.2*	D = 99
N#Cc1c(N)nc2c3c1NC(O)(c1ccccc1)C(C#N)C3c1cc(Cl)ccc1O2 (stereo not given)
  A = -21	B = 98	C = 66	D = 101
COc1ccccc1CC(=O)Nc1c[nH]c(=O)[nH]c1=O
  A = -14	B = 108	C = 87	D = 106
O=S(=O)(NCC(c1ccccc1)N1CCNCC1)c1ccc(Cl)cc1 (stereo not given)
  A = -15	B = 108	C = 87	D = 98
Cc1cc(C)c(/C=C/c2onc(C)c2S(=O)(=O)N2CCC(C(=O)N3CCN(c4ccc(Cl)cc4)CC3)CC2)c(C)c1
  A = .	B = 99	C = 91	D = 102
O=C(NCc1nc2ccccc2c(=O)[nH]1)c1ccccc1
  A = -2	B = 114	C = 93	D = .
CCC(C)NC(=O)c1nc(Nc2ccccc2)c2ccccc2n1 (stereo not given)
  A = -31	B = .	C = .	D = 116
COc1ccc(OC)c(CNC(=O)c2nccnc2C(=O)O)c1
  A = -37	B = .	C = .	D = 96
CC1CCCC(C)N1C(=O)C1CCCCC1C(=O)O (stereo not given)
  A = -3	B = 118	C = 103	D = 105
CCCCN(C(=O)c1cccs1)C1CCS(=O)(=O)C1 (stereo not given)
  A = -14	B = 98	C = 93	D = 98
O=C(O)CN1C(=O)/C(=C\c2cc(Cl)cc(Br)c2O)SC1=S
  A = -100	B = .	C = .	D = 98
CC(C)(C)C(=O)N1CCN(Cc2ccccc2)CC1
  A = 15	B = 87	C = 102	D = .
Cc1cccc(NC(=O)CSc2nc3c(c(-c4ccco4)c2C#N)CCCC3)c1C
  A = .	B = 106	C = 89	D = 110
Cc1ccc(C)c(NC(=O)N2CCN(C)c3ncccc32)c1
  A = -46	B = 95	C = 85	D = 101
CNNC(=S)NCCC1=CCCCC1
  A = -9	B = 99	C = 97	D = 102
CC1(C)CC(=O)C2=C(C1)c1c(ccc3ccccc13)NC2c1ccncc1 (stereo not given)
  A = -20	B = 88	C = 76	D = 98
O=C(c1cc2ccccc2c(=O)o1)N1CCN(C(c2ccccc2)c2ccccc2)CC1
  A = .	B = 108	C = 81	D = 97
C=CCc1ccccc1OCCOc1ccc(C=C2C(=O)NC(=S)NC2=O)cc1OC
  A = -15	B = .	C = .	D = 103
Cc1nc(OCC(=O)NC2CC2)c2c(C)c(C)oc2n1
  A = -15	B = .	C = .	D = 100
COc1ccc(-c2noc(N3CCCC(C(=O)NCCc4ccc(S(N)(=O)=O)cc4)C3)n2)cc1 (stereo not given)
  A = 5	B = .	C = .	D = 110
COC(=O)c1ccc(/C=N/O)cc1
  A = -44	B = 86	C = 89	D = .
Cc1ccc(C)n1-c1ccc(OC(F)F)cc1
  A = -11	B = 88	C = 96	D = .
Cc1[nH]c(=O)[nH]c(=O)c1NC(=O)CSc1nc2c(C)cccc2cc1C#N
  A = 0	B = 93	C = 113	D = 107
Cc1nn(-c2ccc3nncn3n2)c2c1C(c1ccc(Cl)cc1)CC(=O)N2 (stereo not given)
  A = -20	B = .	C = .	D = 102
Cc1csc2nc(COC(=O)c3ccc(NC(=O)c4ccccc4Br)cc3)cc(=O)n12
  A = .	B = 58	C = 20	D = 101
Cc1ccc(S(=O)(=O)N2C(=O)CCC2C(=O)N(C)C2CCCCC2)cc1 (stereo not given)
  A = -18	B = .	C = .	D = 104
CCN(CC)C(=O)c1sc2nc(C)cc(C)c2c1N
  A = -24	B = 78	C = 76	D = 102

# Structural class, the entries above with a thiophene ring, fused or not.
# Codes: A = HCMV UL50-53 inh; B = Sa growth inh; C = Sa growth inh second temp; D = GIV Gai3 FP
Cc1ccc(NC(=O)CN(C)Cc2nnc(-c3cc4c(s3)CCCC4)o2)cc1
  A = -33	B = 74	C = 68	D = .
O=C(Oc1ccc(Oc2ccccc2)cc1)c1cccs1
  A = -119	B = 111	C = 96	D = 100
Cc1ccc(-n2nc(CO)c(C(=O)NCc3cccs3)n2)cc1
  A = -28	B = 93	C = 90	D = 99
Cc1cccc2c1-c1sc(C(=O)Nc3ccc(S(N)(=O)=O)cc3)cc1CO2
  A = .	B = 107	C = 89	D = 101
CCCCN(C(=O)c1cccs1)C1CCS(=O)(=O)C1 (stereo not given)
  A = -14	B = 98	C = 93	D = 98
CCN(CC)C(=O)c1sc2nc(C)cc(C)c2c1N
  A = -24	B = 78	C = 76	D = 102

# Quoted at random: 2 compounds from above.
# Codes: A = HCMV UL50-53 inh; B = Sa growth inh; C = Sa growth inh second temp; D = GIV Gai3 FP
COc1ccc(-c2noc(N3CCCC(C(=O)NCCc4ccc(S(N)(=O)=O)cc4)C3)n2)cc1 (stereo not given)
  A = 5	B = .	C = .	D = 110
COC(=O)c1ccc(/C=N/O)cc1
  A = -44	B = 86	C = 89	D = .

# Going on with the list.
# Codes: A = HCMV UL50-53 inh; B = Sa growth inh; C = Sa growth inh second temp; D = GIV Gai3 FP
Cc1ccc(-c2nc3nc(C)cc(N4CCCCC4C)n3n2)cc1 (stereo not given)
  A = -20	B = .	C = .	D = 108
Cc1nc(SC2CC(=O)N(c3ccc(Br)cc3)C2=O)c(C#N)c(C)c1C (stereo not given)
  A = -19	B = .	C = .	D = 104
Cc1ccc2[nH]c3c(cc(Nc4ccccc4)c4c(=O)c5ccccc5c(=O)c43)oc2c1
  A = -2	B = .	C = .	D = 99
CCCCn1c(SCC(=O)NCC)nc2cc(S(=O)(=O)N3CCCCC3)ccc21
  A = -13	B = 91	C = 91	D = .
COc1ccc(-n2c(=O)c3ccc(C(=O)NCc4ccc(C)cc4)cc3n(Cc3ccc(C)cc3)c2=O)cc1
  A = 0	B = 103	C = 89	D = 105
CCOc1nsnc1N1CCOCC1
  A = -1	B = 88	C = 97	D = 107
CCc1cccc2c(CC(=O)O)c(C)[nH]c12
  A = -1	B = 98	C = 75	D = 103
COc1ccc(-c2nc(SC)n(C(=O)c3ccccc3OC)n2)cc1
  A = 11	B = 107	C = 80	D = 108
Cc1ccc(NC(=O)c2oc3ccc(S(=O)(=O)N4CCC5(CC4)OCCO5)cc3c2C)cc1C
  A = .	B = 113	C = 100	D = 108
CCNc1nc(NCC)n2c(SCC(=O)NCC3CCCCC3)nnc2n1
  A = -8	B = 108	C = 88	D = .
Cc1ccc2[nH]c(CCN(C)C)c(CC#N)c2c1
  A = -2	B = 98	C = 87	D = .
COc1ccc2c(c1)CCc1c(C(=O)Nc3cccnc3)noc1-2
  A = .	B = 100	C = 88	D = 105
Cc1ccc(-c2nnc(SCc3c(C)cc(C)cc3C)o2)cc1
  A = 5	B = 96	C = 87	D = 104
COc1ccccc1S(=O)(=O)Cc1ccc(C(=O)NC(C)c2ccc3c(c2)OCCO3)o1 (stereo not given)
  A = .	B = 88	C = 79	D = 97
CC(=O)Nc1ccc(NC(=O)CSc2nccn2C)cc1
  A = -15	B = 93	C = 90	D = 107
O=C1CC(c2ccccc2)Cc2nc(NC3CC3)ncc21 (stereo not given)
  A = 2	B = 81	C = 84	D = 103
N#C/C(=C/c1ccc(Br)o1)c1ccc(C(=O)O)cc1
  A = -81	B = 124	C = 67	D = 132
O=C(C1CCCN(c2nc3cccnc3s2)C1)N1CCN(c2ccc(Cl)cc2)CC1 (stereo not given)
  A = -29	B = .	C = .	D = 105
CCN(CC(=O)NCc1cccs1)C(=O)Cc1csc(-c2ccccc2)n1
  A = -24	B = 102	C = 81	D = .
Cc1cccc(OCC(=O)Nc2ccc(-c3nc4cc(C)ccc4o3)c(O)c2)c1
  A = -71	B = 103	C = 88	D = 106
N#Cc1ccc(C(=O)OCC(=O)NC2CC2)cc1
  A = -14	B = 70	C = 83	D = .
CC1CCN(C(=O)Cn2cc(C#N)c3ccccc32)CC1
  A = -1	B = 111	C = 91	D = .
CCCN1C(=O)/C(=N\OCC(=O)Nc2ccc(S(=O)(=O)N3CCOCC3)cc2)c2ccccc21
  A = -29	B = 92	C = 90	D = .
COCCNCc1cc(C)ccc1OC
  A = -13	B = 98	C = 99	D = .
O=C(c1cccc(Cl)c1)N(Cc1cc2ccccc2[nH]c1=O)c1ccccc1
  A = .	B = 94	C = 100	D = 103
COc1ccc(N2CCN(C(CNC(=O)C(=O)NCCc3ccccc3)c3cccnc3)CC2)cc1 (stereo not given)
  A = -11	B = 80	C = 86	D = 104
CCOC(=O)c1csc(-c2ccccc2F)n1
  A = -6	B = 93	C = 76	D = 106
O=C(Nc1nccs1)C(Cc1ccccc1)n1cccc1 (stereo not given)
  A = 3	B = 105	C = 73	D = 97
O=C(NCC(=O)N1CCN(C(=O)c2ccccc2)CC1)c1ccccc1
  A = 6	B = 110	C = 99	D = .
N#Cc1nc(-c2ccccc2)oc1NCC1CCCO1 (stereo not given)
  A = -36	B = 105	C = 93	D = .
O=C(CSCc1nc2cccnc2n1C1CCCCC1)NC1CCCC1
  A = -21	B = .	C = .	D = 115
